Screens as filed in PubChem BioAssay.
Texas Red fluor: Texas Red region autofluorescence; max dye-equivalent concentration, M; actives 0.06% (n = 59,000); Compound fluorescence, Texas Red channel, 547/618 nm; stronger effect = higher value; AID 587; in the data active = max dye-equivalent concentration above about 10 nM; inconclusive = between about 1.1 nM and that limit
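Texas Red-region profiling: compounds in 100 mM Tris pH 8.0 were read at 547/618 nm after 15 min at room temperature. Intensities were normalized against a six-point Texas Red standard series to give dye-equivalent concentration.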
DNA Pol III inh: DNA polymerase III holoenzyme inhibition. reconstituted DNA polymerase III holoenzyme replication, biochemical. Potency, µM (doses to about 57.1 µM), inactives show at the highest dose activity change, negative = inhibition. actives 0.25% (n = 71,000). AID 603; note: potency is the fitted concentration of half-maximal effect; % is set by controls: 0 for no effect and ±100 for the full control effect
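Reconstituted *E. coli* holoenzyme (0.35 nM Pol III, 1 nM beta, 154 nM SSB, 2 nM primase) was preincubated with compound for 15 min at RT. Synthesis on 1.4 nM ssM13Gori ran 35 min, then was stopped with PicoGreen/EDTA and read as dsDNA fluorescence.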
Fluorescein autfl: compound autofluorescence in fluorescein spectral region; Compound autofluorescence, 480/540 nm, fluorescein-equivalent; stronger effect = higher value; max fluorescein-equivalent concentration, M; actives 0.91% (n = 59,000); AID 593; in the data active = max fluorescein-equivalent concentration above about 10 nM; inconclusive = between about 1.1 nM and that limit
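Fluorescein stocks ranging 3 mM down to 300 nM, plus DMSO blanks, were pinned alongside compounds to build a per-plate standard curve. Buffer: 100 mM Tris, pH 8.0. Incubation 15 min, room temperature; filters 480/540 nm.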
Rhodamine autofl: compound fluoresces in the rhodamine spectral region; max dye-equivalent concentration, M; Rhodamine-region fluorescence, 547/598 nm, Tris buffer; stronger effect = higher value; actives 0.05% (n = 59,000); in the data active = max dye-equivalent concentration above about 11 nM; inconclusive = between about 1.1 nM and that limit
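A six-point rhodamine series on each plate calibrates the signal. Compounds sit in 100 mM Tris (pH 8.0) for 15 min at ambient temperature before imaging through 547 nm/598 nm filters.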
UbGFP stabilizer: inhibits proteasome, raising ubiquitin-GFP reporter fluorescence; Ubiquitin-GFP reporter cells, proteasome inhibition, GFP fluorescence; response scale: untreated = 0%, 10 µM MG-132 = 100%; Potency, µM (doses to about 45.9 µM), for inactives: at the highest dose activation (GFP accumulation), usual class: activators; 67,000 tested, under 10 active; active = well fitted activation curve with a large enough effect, not every such curve was filed as active; inconclusive = small, poorly fitted or top-dose-only effect, or another doubt; inactive = no such curve, though single readings can be large or run the other way; note: potency is the fitted concentration of half-maximal effect
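U2OS cells expressing ubiquitin(G76V)-GFP, seeded overnight in 0.5% FBS medium, then treated 4 hr at 37 C across 46 uM to 2.9 nM. GFP-positive cells counted by laser cytometry (488 ex/515 em); %activity scaled between basal and 10 uM MG-132.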
15-hLO inh: 15-hLO (ALOX15) enzyme inhibition. P16050. purified 15hLO-1, xylenol orange hydroperoxide absorbance. Potency, µM (titrated, usually from 57.1 µM), for the others: top-dose activity change, negative = inhibition, actives largely listed as inhibitors. actives 1.4% (n = 74,000); note: potency is the fitted concentration of half-maximal effect; % is set by controls: 0 for no effect and ±100 for the full control effect; nearly all actives have a fitted effect of over 55% in size
Target sequence (P16050 whole entry, looked up): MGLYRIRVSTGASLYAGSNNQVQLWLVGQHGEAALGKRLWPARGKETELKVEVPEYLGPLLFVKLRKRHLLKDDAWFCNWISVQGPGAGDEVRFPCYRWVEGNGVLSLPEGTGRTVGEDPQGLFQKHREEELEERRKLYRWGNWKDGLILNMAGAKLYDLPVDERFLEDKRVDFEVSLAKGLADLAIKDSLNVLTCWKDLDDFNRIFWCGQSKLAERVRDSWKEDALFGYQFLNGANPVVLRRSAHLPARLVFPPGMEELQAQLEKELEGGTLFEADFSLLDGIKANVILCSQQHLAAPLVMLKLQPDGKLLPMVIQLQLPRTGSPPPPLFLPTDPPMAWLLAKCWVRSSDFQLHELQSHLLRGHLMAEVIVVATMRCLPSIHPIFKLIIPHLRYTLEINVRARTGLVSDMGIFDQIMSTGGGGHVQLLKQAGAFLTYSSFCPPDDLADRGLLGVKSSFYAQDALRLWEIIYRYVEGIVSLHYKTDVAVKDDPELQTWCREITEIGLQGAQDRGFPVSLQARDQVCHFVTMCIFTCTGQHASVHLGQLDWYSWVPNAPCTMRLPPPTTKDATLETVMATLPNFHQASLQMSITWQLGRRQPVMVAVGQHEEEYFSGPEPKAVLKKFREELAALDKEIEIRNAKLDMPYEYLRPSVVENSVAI
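Hydroperoxide formed from arachidonic acid (50 uM) by purified human 15hLO-1 (40 nM) oxidizes ferrous iron, and the ferric-xylenol orange complex is read at 573 versus 405 nm. Compounds were preincubated 15 min; reaction ran 6 min at room temperature.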
4-MU autofl: compounds fluorescent in 4-MU spectral region; compound autofluorescence, 340/450 nm, 4-MU equivalents; stronger effect = higher value; actives 11% (n = 59,000); max dye-equivalent concentration, M; in the data active = max dye-equivalent concentration above about 10 nM; inconclusive = mostly about 1.1 nM to 9.6 nM
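Compounds in 100 mM Tris, pH 8.0, sat 15 min at room temperature before fluorescence was read at 340 nm excitation/450 nm emission; a per-plate six-point 4-MU standard curve converted signals to dye-equivalent concentration at each compound concentration.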
HBB splice mod: modulators of hemoglobin beta chain splicing; Potency, µM (highest dose often 46.1 µM), inactives show at the highest dose activation, actives largely listed as activators; actives 0.06% (n = 65,000); AID 925; HBB splicing reporter cell assay, activation; EGFP reporter with mutant IVS2-654 intron; response scale: normalised to 500 nM splice-correcting PNA; note: potency is the fitted concentration of half-maximal effect; 0% is about no effect
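Compounds were applied for 2 days to HeLa EGFP-654 cells, 500/well in Optimem with 2% FCS. The reporter's EGFP is disrupted by mis-splicing of beta-globin intron IVS2-654. Readout: summed well GFP fluorescence from 488 nm laser scanning; reference was 500 nM antisense […] 654 PNA.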
HADH2 inhib: blocks human hydroxyacyl-CoA dehydrogenase type II | recombinant HADH2, NADH fluorescence, beta-hydroxybutyryl-CoA | Potency, µM (doses to about 57.1 µM), for inactives: top-dose activity change, negative = inhibition, actives largely listed as inhibitors | actives 3.4% (n = 73,000); note: potency is the fitted concentration of half-maximal effect; % is set by controls: 0 for no effect and ±100 for the full control effect; nearly all actives have a fitted effect of over 60% in size; many of its hits are not listed in these tables
Target sequence (Q99714 whole entry, looked up, one chain of several): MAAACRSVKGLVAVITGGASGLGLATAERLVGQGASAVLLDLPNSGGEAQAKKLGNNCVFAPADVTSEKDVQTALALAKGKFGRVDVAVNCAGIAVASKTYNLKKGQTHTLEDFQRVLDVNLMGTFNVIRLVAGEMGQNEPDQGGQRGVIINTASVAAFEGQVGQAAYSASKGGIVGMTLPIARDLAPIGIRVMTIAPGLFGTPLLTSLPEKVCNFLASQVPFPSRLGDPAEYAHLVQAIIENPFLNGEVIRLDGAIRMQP
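NADH fluorescence (ex 360/em 450 nm) read every 30 s for 4 min; activity taken as last-minus-first time point difference. Enzyme 20 nM, NAD+ 1 mM, beta-hydroxybutyryl-CoA 90 uM, pH 9.0 Tris buffer.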
Epigenetic mod: epigenetic GFP locus derepression in mouse cells | mouse C127i GFP locus derepression, cytometry, 30 h | Potency, µM (highest dose often 46.1 µM), without a hit: top-dose GFP derepression (activation) | actives 0.09% (n = 68,000) | AID 597; note: % of control where 0% means no effect
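Murine C127i mammary cells carrying a silenced, stably integrated CMV-driven GFP reporter were treated with compound for 30 hours at 37 C. After PBS washes, GFP-positive cells were counted by laser-scanning microplate cytometry.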
* = called active by the depositor; i = inactive; u = inconclusive; x = no result given; [ ] = dose if it differs, or a comment. Unless noted, calls come from the whole dose curve; as a rule, active = well fitted curve in the direction sought with a large enough effect; inconclusive = small, poorly fitted or top-dose-only effect, or another doubt; inactive = no such curve, though single readings can be large; an effect the other way counts as inactive or inconclusive. Some of the compounds tested (hit frequency here may not be typical).

SMILES | Texas Red fluor | DNA Pol III inh | Fluorescein autfl | Rhodamine autofl | UbGFP stabilizer | 15-hLO inh | 4-MU autofl | HBB splice mod | HADH2 inhib | Epigenetic mod
O=C(Nc1ccc(S(=O)(=O)N2CCOCC2)cc1)c1ccc(Cl)s1 | u | 1% | i | i | 0% | -12% | i | 0.1%[57.5 µM] | 1% | 2%
Nn1c(SC/C=C/c2ccccc2)nnc1-c1ccccn1 | i | -3% | u | i | -5% | 11% | i | 3.5%[1.84 µM] | -24% | -2%
CC(=O)c1ccc(NC(=O)C2CCCN2S(=O)(=O)c2ccc(F)cc2)cc1 (configuration not stated) | x | -8% | x | x | 14% | 8% | x | 0.5% | -2% | 5%
CC(=O)N1CCn2c3c(c(=O)c4cc(C)ccc42)CCC31 (configuration not stated) | x | -2% | x | x | -6% | -18% | x | -0.1% | -23% | -2%
COC(=O)c1cn(NC(=O)c2ccc3c(c2)OCO3)c(=O)c2ccccc12 | i | -7% | u | i | -4% | -13% | i | -4.8% | -2% | 0%
O=C(CCn1nnc2ccccc2c1=O)N[C@H](C(=O)O)c1ccccc1 | i | -9% | i | i | 20% | 4% | i | 0.6% | -3% | 3%
CCC(NS(=O)(=O)c1c(C)[nH]c(=O)[nH]c1=O)C12CC3CC(CC(C3)C1)C2 (configuration not stated) | i | -1% | i | i | 1% | -7% | i | -0.2% | -4% | 0%
OC[C@@H](O)[C@@H](O)[C@@H](O)[C@@H](O)c1nc2ccc(Cl)cc2[nH]1 | i | -9%[11.4 µM] | u | i | -3%[9.17 µM] | 0%[11.4 µM] | i | -0.2%[9.22 µM] | 0%[11.4 µM] | -3%[9.22 µM]
c1ccc(-n2c(SCC3CCCCO3)nnc2-c2cnccn2)cc1 (configuration not stated) | i | -12% | u | i | 4% | -2% | i | -0.5% | -17% | -3%
c1ccc(-c2nc(N3CCOCC3)c3ccccc3n2)nc1 | i | 11% | u | i | 0% | 53%[activator] | i | -3.2%[57.5 µM] | 4% | 0%
CCOC(=O)c1oc2ccccc2c1CSc1nnnn1-c1ccc(OC)cc1 | i | -5% | i | i | 16% | -4% | i | 3.6% | 8% | -1%
CCOC(=O)c1sc(NC(=O)CSc2nc3c(cc2C#N)CCC3)c(C#N)c1C | i | -2% | i | i | 2% | 3% | i | -0.2% | 8% | 2%
CCCn1c(=O)c2ccccc2n2c(SCCOc3ccccc3)nnc12 | u | -2% | i | i | 3% | -4% | i | -0.1%[57.5 µM] | -4% | -3%
CCOc1cccc(NC(=O)C2CC(=O)N(C)C2)c1 (configuration not stated) | i | -2% | i | i | -1% | 10% | i | 0.0% | 0% | 11%
Cc1ccc2cc3c(nc2c1)N(Cc1ccco1)CC3 | i | 0% | i | i | -1% | -19% | u | -2.2% | -2% | 2%
Cc1ccc(S(=O)(=O)NCC(=O)OCC(=O)c2cccs2)cc1 | i | 4% | i | i | 1% | 0% | i | x | 0% | 0%
CCC(Sc1ccc2nnc(-c3cccnc3)n2n1)C(=O)O (configuration not stated) | x | -3% | x | x | -8% | -1% | x | 0.3% | -16% | x
Cn1nnnc1NCc1c(F)cccc1Cl | i | -7% | i | i | -5% | 4% | i | 1.0% | -9% | 0%
O=C(Nc1ccc2c(c1)Cc1ccccc1-2)c1ccco1 | i | -1% | i | i | -3% | -6% | u | 5.4%[57.5 µM] | 10% | -3%
O=C(CN(Cc1ccco1)S(=O)(=O)c1cccs1)Nc1ccccc1C(F)(F)F | i | -10% | i | i | 1% | 0% | i | -0.3% | 10% | 2%

Gathered by group: those above with two or more sulfur atoms.
SMILES | Texas Red fluor | DNA Pol III inh | Fluorescein autfl | Rhodamine autofl | UbGFP stabilizer | 15-hLO inh | 4-MU autofl | HBB splice mod | HADH2 inhib | Epigenetic mod
O=C(Nc1ccc(S(=O)(=O)N2CCOCC2)cc1)c1ccc(Cl)s1 | u | 1% | i | i | 0% | -12% | i | 0.1%[57.5 µM] | 1% | 2%
CCOC(=O)c1sc(NC(=O)CSc2nc3c(cc2C#N)CCC3)c(C#N)c1C | i | -2% | i | i | 2% | 3% | i | -0.2% | 8% | 2%
Cc1ccc(S(=O)(=O)NCC(=O)OCC(=O)c2cccs2)cc1 | i | 4% | i | i | 1% | 0% | i | x | 0% | 0%
O=C(CN(Cc1ccco1)S(=O)(=O)c1cccs1)Nc1ccccc1C(F)(F)F | i | -10% | i | i | 1% | 0% | i | -0.3% | 10% | 2%

The list goes on.
SMILES | Texas Red fluor | DNA Pol III inh | Fluorescein autfl | Rhodamine autofl | UbGFP stabilizer | 15-hLO inh | 4-MU autofl | HBB splice mod | HADH2 inhib | Epigenetic mod
CCCn1nc(NS(C)(=O)=O)c2cc3cccc(C)c3nc21 | i | -11% | i | i | 0% | -7% | i | -2.5% | 3% | 5%
CCOc1ccccc1C(=O)NCc1ccc2c(c1)OCO2 | i | 1% | i | i | 16% | 1% | i | 2.0% | -7% | 0%
Cc1cc(C)c2c(CC(=O)Nc3ccc(Cl)cn3)coc2c1 | i | 0% | u | i | -3% | 3% | i | 0.2% | 1% | -1%
COc1ccc(CCNC(=O)c2c(-c3ccccc3)noc2C)cc1OC | x | -6% | x | x | -12% | 4% | x | -0.1% | -6% | -4%
O=C(Nc1ccc(S(=O)(=O)N2CCOCC2)cc1)c1cccs1 | i | -4% | i | i | 5% | 8% | i | -1.1% | 5% | -3%
N#CC(C(=O)NC1CCCCC1)c1nc2ccccc2nc1N1CCCCC1 (configuration not stated) | i | 3% | u | i | -3% | -7% | 1.2e-08M* | -0.3%[57.5 µM] | -4% | 2%
c1ccc2oc(SCc3nc4ccccc4s3)nc2c1 | i | 4% | u | i | 3% | -14% | u | -1.2% | -19% | 0%
CC(=O)c1c(C)[nH]c(C(=O)COC(=O)CNS(=O)(=O)c2ccccc2)c1C | u | -12% | i | i | 11% | -8% | i | 0.5% | -1% | -2%
c1cc2c3c(cccc3c1)C(N1CCCCC1)=N2 | x | -19%[11.4 µM] | x | x | -6%[9.17 µM] | u | x | -3.6%[0.0738 µM] | -11%[11.4 µM] | -4%
Cn1c(=O)c2[nH]cnc2n(-c2ccccc2)c1=O | i | -2% | u | i | 0% | 8% | 2.6e-08M* | 0.0% | 13% | 0%
CCCn1c(=O)c2ccccc2n2c(SCCOc3ccc(OC)cc3)nnc12 | i | -6% | i | i | -2% | 5% | i | -3.5% | 8% | 2%
CCn1nc(NC(=O)c2cccnc2)c2cc3cccc(C)c3nc21 | i | -2% | i | i | -8% | 5% | i | -0.6% | 0% | 0%
O=c1[nH]c2cc(Cl)ccc2n1-c1ccccc1 | i | -3% | i | i | -2% | 2% | i | x | 3% | 0%
Cc1cc(C)c2oc(=O)cc(CN3CCN(Cc4ccc5c(c4)OCO5)CC3)c2c1 | i | -2% | i | i | 1% | 2% | i | -2.8%[57.5 µM] | 8% | 0%
CCOC(=O)c1cc2oc(C)cc2n1CC(=O)OC1CCCCC1 | i | 1% | i | i | 2% | u | i | x | u | 1%
O=C(Nc1nccs1)C1CCCN1S(=O)(=O)c1ccc(F)cc1 (configuration not stated) | i | -6% | i | i | -1% | 1% | i | 3.4% | -4% | -2%
O=C(Nc1ccc(O)cc1)C1CCCN1S(=O)(=O)c1ccc(F)cc1 (configuration not stated) | x | 8% | x | x | -8% | 2% | x | 0.3% | -2% | -2%
O=C(NCc1ccco1)C1(S(=O)(=O)c2ccc(Cl)cc2)CC1 | i | 0% | i | i | 0% | 2% | i | -1.0% | -3% | 4%
COc1ccc(N=C2SC(CC(=O)Nc3ccc(OC)cc3OC)C(=O)N2C)cc1 (configuration not stated) | i | -3% | i | i | 10% | -4% | i | -1.3% | -5% | 2%
COc1ccc(CC(=O)c2cc(OC)c(OC)cc2CC(=O)O)cc1OC | x | 3% | x | x | -8% | -10% | x | 4.2% | -4% | -3%

Filtered by structure: the entries above with an NH in an aromatic ring
SMILES | Texas Red fluor | DNA Pol III inh | Fluorescein autfl | Rhodamine autofl | UbGFP stabilizer | 15-hLO inh | 4-MU autofl | HBB splice mod | HADH2 inhib | Epigenetic mod
CCC(NS(=O)(=O)c1c(C)[nH]c(=O)[nH]c1=O)C12CC3CC(CC(C3)C1)C2 (configuration not stated) | i | -1% | i | i | 1% | -7% | i | -0.2% | -4% | 0%
OC[C@@H](O)[C@@H](O)[C@@H](O)[C@@H](O)c1nc2ccc(Cl)cc2[nH]1 | i | -9%[11.4 µM] | u | i | -3%[9.17 µM] | 0%[11.4 µM] | i | -0.2%[9.22 µM] | 0%[11.4 µM] | -3%[9.22 µM]
CC(=O)c1c(C)[nH]c(C(=O)COC(=O)CNS(=O)(=O)c2ccccc2)c1C | u | -12% | i | i | 11% | -8% | i | 0.5% | -1% | -2%
Cn1c(=O)c2[nH]cnc2n(-c2ccccc2)c1=O | i | -2% | u | i | 0% | 8% | 2.6e-08M* | 0.0% | 13% | 0%
O=c1[nH]c2cc(Cl)ccc2n1-c1ccccc1 | i | -3% | i | i | -2% | 2% | i | x | 3% | 0%
